Source: PubChem BioAssay
VACV Venus inh = vaccinia inhibition (Venus reporter); Vaccinia virus Venus reporter expression, fluorescence; Potency, µM (top dose mostly 36.5 µM), inactives show top-dose activity change, negative = inhibition, hits mostly inhibitors; 330,000 tested, 0.46% active; AID 720580; active means well fitted inhibition curve with a large enough effect; inconclusive means small, poorly fitted or top-dose-only effect; inactive means no such curve, though single readings can be large or run the other way; tested in A549 cells; also: nearly all actives have a fitted effect of over 30% in size; inactives centre near -10
Vaccinia mCherry = vaccinia inhibition (mCherry reporter). Vaccinia virus mCherry reporter infection, fluorescence; about a quarter of the inactives have no number. Potency, µM (highest dose often 36.5 µM), for inactives: at the highest dose activity change, negative = inhibition, hits mostly inhibitors. 310,000 tested, 0.63% active. AID 720579; active = well fitted inhibition curve with a large enough effect; inconclusive = small, poorly fitted or top-dose-only effect; inactive = no such curve, though single readings can be large or run the other way; tested in A549 cells; also: nearly all actives have a fitted effect of over 35% in size; inactives centre near -10
The depositor's hits bear a star; i = inactive; ? = inconclusive; · = no result given; [ ] = dose if it differs, or a comment. % is scaled to controls: 0 for no effect and ±100 for the full control effect; potency is read from the fitted curve at half-maximal effect.

SMILES | VACV Venus inh | Vaccinia mCherry
CC[C@@]1(C(=O)OC)N[C@H](CN(C)C(=O)c2ccccc2)[C@@H]2C(=O)N(C)C(=O)[C@@H]21 | 4% | -8%
O=C(/C=C/c1ccc(Cl)cc1)NC(=S)N1C[C@H]2C[C@H](C1)c1cccc(=O)n1C2 | 0% | i
Cc1ccc(C(=O)Nc2c3c(nn2-c2ccccc2)CS(=O)(=O)C3)cc1C | -10% | -3%
COc1ccc(-c2nnc(CSc3nc4ccccc4c(=O)n3CC(C)C)o2)cc1OC | -7% | -6%
O=C(O)CN1C(=O)SC(Nc2ccccc2)C1=O (stereo unspecified) | -8% | -11%
O=C1CC(c2ccccc2)CC(O)=C1C=NCCN1CCOCC1 (stereo unspecified) | -8% | -14%
CN1C[C@@H]2[C@@H]3C(=O)N(Cc4ccccc4)C(=O)[C@@H]3[C@](C)(C1=O)N2C(=O)c1ccc(Cl)cc1 | -7% | -6%
O=C(Cc1ccc(Cl)cc1)Nc1ccc2oc(=O)ccc2c1 | -16% | -23%
Cc1ccc(NC(=O)OCc2cc(-c3ccccc3)on2)cc1 | -14% | -4%
CCN1CCN(C(CNS(=O)(=O)c2ccc(Cl)cc2)c2cccnc2)CC1 (stereo unspecified) | -8% | i
CNc1nnc(-c2cc3ccccc3oc2=O)s1 | -8% | -7%
Cc1cc(N2CCN(c3cccc(C(F)(F)F)c3)CC2)n2nc(C)nc2n1 | ? | ·
COc1cc(OC)c(N(C)S(=O)(=O)c2cccc(C(=O)OCC(=O)NCc3ccco3)c2)cc1Cl | -13% | -6%
O=c1ccc(C(F)(F)F)cn1Cc1cc(=O)n2cc(Br)ccc2n1 | -6% | 2%
CC(=O)c1ccc(N2CCN(CC(O)COC(c3ccccc3)c3ccccc3C)CC2)cc1 (stereo unspecified) | -13% | ?
O=C(COC(=O)c1ccc2ccccc2n1)c1ccccc1 | 0% | -7%
Cc1cccc(OCc2nc(CC(=O)Nc3ccc(C)cc3C)cs2)c1 | 2% | 1%
COc1ccc(CNCC(O)(c2ccc(F)cc2)c2ccc(F)cc2)cc1 | -4% | i
CSc1cccc(NS(=O)(=O)c2ccc3[nH]cc(C(=O)N4CCCC4)c(=O)c3c2)c1 | -4% | -11%
Cc1c(NN=C(C#N)C#N)c(=O)n(-c2ccccc2)n1C | 5% | 3%
O=C(c1ccoc1)N1CCC2(CC1)Oc1ccc(Cl)cc1C(=O)C21CC(c2cccnc2)=NO1 (stereo unspecified) | -14% | -5%
CC(=O)C(C)Oc1ncn(-c2ccccc2)n1 (stereo unspecified) | -11% | ·
C/C(=N\NC(=O)c1cc([N+](=O)[O-])cc([N+](=O)[O-])c1)c1ccco1 | -11% | i
COc1ccc(C2Nc3ccccc3C(=O)N2NS(=O)(=O)c2ccccc2)cc1 (stereo unspecified) | -8% | -4%
CCOC(=O)CNC(=O)CSc1nc(C(C)C)nc2c1cnn2-c1ccccc1 | 0% | -15%

Single values from the list.
`CC(=O)c1ccc(N2CCN(CC(O)COC(c3ccccc3)c3ccccc3C)CC2)cc1` (stereo unspecified) in VACV Venus inh: -13%
`COc1ccc(CNCC(O)(c2ccc(F)cc2)c2ccc(F)cc2)cc1` in VACV Venus inh: -4%
`C/C(=N\NC(=O)c1cc([N+](=O)[O-])cc([N+](=O)[O-])c1)c1ccco1` in VACV Venus inh: -11%
`CSc1cccc(NS(=O)(=O)c2ccc3[nH]cc(C(=O)N4CCCC4)c(=O)c3c2)c1` in VACV Venus inh: -4%
`Cc1cccc(OCc2nc(CC(=O)Nc3ccc(C)cc3C)cs2)c1` in Vaccinia mCherry: 1%
`CNc1nnc(-c2cc3ccccc3oc2=O)s1` in VACV Venus inh: -8%

Later entries.
SMILES | VACV Venus inh | Vaccinia mCherry
Cc1ccc(/C=N/NC(=O)C[n+]2ccccc2)o1 | 4% | -8%
Cc1c(C(=O)N2CCN(c3ncccn3)CC2)oc2ccc(F)cc12 | 12% | -12%
C[C@H](CO)N1C[C@H](C)[C@H](CN(C)C(=O)c2ccccn2)Oc2cc(C#Cc3ccc(F)cc3)ccc2S1(=O)=O | ? | -20%
CCN(CC(=O)NC1CCS(=O)(=O)C1)C(=O)COc1ccccc1-c1ccccc1 (stereo unspecified) | -11% | i
C[C@H](CO)N1C[C@H](C)[C@H](CN(C)C(=O)Nc2ccc(F)cc2)OCc2ccccc2-c2c(n(C)c3ccccc23)C1=O | ? | -20%
C=C(C)CNC(=S)N/N=C/c1ccco1 | 12% | ?
CN(C)/C=C1/C=C(C=O)OC1=O | 5% | -8%
c1coc(Cn2c(-c3ccco3)nc3ccccc32)c1 | -11% | ·
OCCCNc1cc(-c2ccccc2)nc2cc(-c3ccc(F)cc3)nn12 | ? | -27%
COc1ccc(C(=O)CSc2nnnn2Cc2ccccc2)cc1 | -7% | -15%
Cc1c(CNC(=O)C2CC2)c(-n2cccc2)n(Cc2ccccc2)c1C | -5% | i
Cc1cc(C)c(S(=O)(=O)n2nc(C)c(Br)c2C)c(C)c1 | -8% | -14%
COC(=O)Cn1nc(C)c2ccccc2c1=O | 2% | -7%
O=C(COC(=O)c1ccc(O)cc1O)c1ccc2c(c1)OCO2 | -8% | -1%
COc1ccc(NCC(=O)n2c(C)c(C)c3ccccc32)cc1OC | -1% | ?
CCOC(=O)C1CCN(C(=O)CN(c2ccc(OC)cc2)S(=O)(=O)c2c(C)noc2C)CC1 | -12% | 7%
Cn1cc(S(=O)(=O)N2CCCCC2)cc1C(=O)N1CCN(c2ccccc2F)CC1 | -9% | -18%
Cc1ccc(C)c(N2CCN(CCCNC(=O)C3COc4ccccc4C3)CC2)c1 (stereo unspecified) | -16%[7.34 µM] | -20%[7.34 µM]
CCOC(=O)Cn1c2c(c(-c3ccccc3OC)cc1=O)CCCC2 | 0% | -7%
COc1ccc(-c2cc3nc(NCc4ccc(C)cc4C)n(C)c(=O)c3s2)cc1OC | -24% | ?
Cc1ccc(Cn2nc(C)cc2C(=O)Nc2ccc(Cl)cc2)cc1 | -2% | ?
Cc1ccc(C)c(CSc2cn(CC(=O)N3CCCC3)c3ccccc23)c1 | -11% | -8%
N#Cc1c(NCCN)nc(-c2ccco2)c2c1CCCC2 | ? | ·
COc1ccc(C(=O)NNC(=O)c2cccc(S(=O)(=O)N3CCOCC3)c2)cc1 | -4% | -13%
Cc1nc2ccc(-c3nc4ccc(N)cc4[nH]3)cc2[nH]1 | -6% | -12%
Next part:
SMILES | VACV Venus inh | Vaccinia mCherry
CC(=O)N/C(=C\c1ccccc1)C(=O)OCC(=O)N(C)C1CCS(=O)(=O)C1 (stereo unspecified) | -4% | -14%
CC/C=C/CC(=O)N[C@@H](c1ccccc1)[C@@H](O)C(=O)O[C@H]1C[C@@]2(O)[C@@H](OC(=O)c3ccccc3)C3[C@](C)(C(=O)[C@H](OC(C)=O)C(=C1C)C2(C)C)[C@@H](O)C[C@H]1OC[C@@]31OC(C)=O (stereo partly specified) | ? | -9%
O=c1cc(-c2ccc(O)cc2)oc2c([C@@H]3O[C@H](CO)[C@@H](O)[C@H](O)[C@H]3O)c(O)c([C@@H]3O[C@H](CO)[C@@H](O)[C@H](O)[C@H]3O)c(O)c12 | -5% | -19%
CC1CN(Cc2ccccc2)C(=O)NC1=O (stereo unspecified) | -3% | -13%
C[C@]12c3[nH]c4ccc(Cl)cc4c3CCN1C(=O)[C@@H](CC(=O)NCC13CC4CC(CC(C4)C1)C3)C[C@@H]2C(=O)N1CCOCC1 | 13µM* | ?
CCn1c2ccccc2c2cc(CN3CCN(Cc4cccc(Cl)c4)CC3)ccc21 | -22% | -25%
CCc1ccc(CC2(O)CC(C)N(C)CC2C)cc1 (stereo unspecified) | -5% | i
CCOc1ccccc1NC(=O)C(=O)Nc1ccc2nc3n(c(=O)c2c1)CCCCC3 | -24% | -27%
CC(C)N1CCC(=NNC(=O)c2ccccc2[N+](=O)[O-])CC1 | -9% | -11%
O=C1N[C@@H](c2ccccc2)COC(=O)[C@H](Cc2ccc(F)cc2)CC/C=C/C[C@@H]1CC(=O)N(CCO)Cc1ccccc1 | ? | -9%
NC(CO)c1csc(Nc2ccc(C(=O)c3ccccc3)cc2)n1 (stereo unspecified) | -10% | -2%
CCOc1ccccc1-c1noc(CCC(=O)Nc2cccnc2)n1 | 9% | i
O/N=C/c1ccc(OCc2ccccc2)c(Cl)c1 | ? | -14%
CC(=O)Nc1ccc(NC(=O)/C=C/c2ccccc2)cc1 | -7% | -17%
CC(C)(C)C(=O)Nc1cc(S(=O)(=O)Nc2ccc(Cl)cc2)ccc1Cl | -14% | -21%
CCN(CC)S(=O)(=O)c1cccc(NC(=S)NC(=O)/C=C/c2ccc(S(=O)(=O)N3CCOCC3)cc2)c1 | -2% | -14%
O=C1NC(=Nc2ccccc2Cl)S/C1=C\c1cccc([N+](=O)[O-])c1 | -3% | -2%
Cc1cc(C)c(C#N)c(SCC(=O)Nc2ccc(S(=O)(=O)Nc3ncccn3)cc2)n1 | -9% | -10%
COc1ccccc1CNC(=O)[C@H](C)NC(=O)C1CCN(C(=O)[C@@H]2CCCN2C(=O)OC(C)(C)C)CC1 | ? | ?
Cc1ccc(N2C(=O)CS/C2=N\C(=S)Nc2ccccc2)cc1 | -14% | -13%
O=C(c1ccc2c(c1)N(Cc1ccc(Cl)cc1)C(=O)c1ccccc1S2(=O)=O)N1CCCCC1 | -11% | -10%
O=C(NCc1ccco1)c1cc(-c2cccs2)nc2ccccc12 | -2% | -12%
CCC(=O)Nc1cc(C(C)(C)C)ccc1C(C)=O | -6% | -14%
O=C(c1cccc(NC2=NC3CS(=O)(=O)CC3S2)c1)N1CCN(c2ccc(F)cc2)CC1 (stereo unspecified) | -10% | i
O=S(=O)(NCC(c1cccnc1)N1CCOCC1)c1cccs1 (stereo unspecified) | -5% | -9%
Other results:
SMILES | VACV Venus inh | Vaccinia mCherry
COc1ccccc1C(=O)Nc1cccc(C(=O)OCc2cc(=O)n3cc(C)sc3n2)c1 | -12% | -14%
Cc1nc(=S)c2c([nH]1)-c1ccccc1CC21CCCCC1 | ? | ?
O=C(O)CCn1c(-c2ccccc2)cc2c1CCCC2=O | -2% | i
CCc1ccc(CNC(=O)CSc2cc(=O)n(C)c3ccc(Cl)cc23)cc1 | -8% | -6%
CC(C)COc1cccc(C(=O)NC2(C)CCS(=O)(=O)C2)c1 (stereo unspecified) | -6% | i
CCn1c(C)nc2cc(C(=O)N/N=C/c3cccc(O)c3O)ccc21 | ? | 13µM*
CCCCN(CC)C(=O)CSc1nc2n[nH]c(C)c2c(=N)n1-c1cccc(C)c1 | ? | ?
CCOCCCNC(=O)Cn1nc(-c2ccc(OC)c(OC)c2)ccc1=O | -10% | -3%
O=C(Nc1cccc(Cl)c1Cl)C1CCCO1 (stereo unspecified) | -15% | i
Fc1cccc(Cc2c(-c3cccc(Cl)c3)nc3c(Cl)cc(C(F)(F)F)cn23)c1 | -2% | 5%
O=C(O)CC(NC(=O)C1c2ccccc2Oc2ccccc21)c1ccc(OC2CCCC2)cc1 (stereo unspecified) | -7% | -6%
COc1ccc(C2CC(=O)n3nc(C45CC6CC(CC(C6)C4)C5)nc3S2)cc1OC (stereo unspecified) | -12% | -16%
CCC(=O)c1ccc(OCC(O)Cn2c(C)nc3ccccc32)cc1 (stereo unspecified) | -30% | ?
Cc1nc2c3ccccc3nc(SCC(=O)c3ccc(Cl)cc3)n2n1 | -9% | i
CN1C(=O)/C(=C\c2ccc(-c3ccccc3)o2)SC1=S | 4% | -6%
CCOC(=O)c1sc(NC(=O)CNCc2cccnc2)c(C(=O)OCC)c1C | -2% | -1%
Cc1ccc(S(=O)(=O)N2CCCC(C(=O)NCCc3ccc4c(c3)OCO4)C2)cc1 (stereo unspecified) | -28% | ·
Cc1ncc2c(c1CNC(=O)c1ccc3c(c1)OCO3)CCN(C(=O)c1coc3c1C(=O)CCC3)C2 | 2% | -7%
COc1ccccc1CNC(=O)CSc1cc(C)[nH]c(=O)n1 | -5% | -16%
O=C(Nc1cccc2ccccc12)c1ccc(Cn2cc(Cl)cn2)cc1 | 17% | ·
Cc1cccc(NC(=O)Cn2cc(C(=O)c3ccccc3)c3ccccc32)c1C | -25% | -18%
COc1ccc(Cl)cc1S(=O)(=O)N1CCC(C(=O)NCc2ccccn2)CC1 | -9% | -28%
CCc1cc2cc(C)ccc2nc1SCC(=O)NC1CCCC1 | -5% | -2%
COc1ccc(OC)c(NC(=O)CSc2nc3[nH]c(=O)[nH]c(=O)c3s2)c1 | -2% | -13%
COCCn1c(N)c(N(Cc2ccccc2)C(=O)c2ccc(C#N)cc2)c(=O)[nH]c1=O | -5% | -2%
CN1CCN(C(CNC(=O)c2ccccc2)c2ccc3c(c2)OCO3)CC1 (stereo unspecified) | -15% | -9%
C[C@@H]1CN([C@H](C)CO)C(=O)Cc2cc(NS(=O)(=O)c3ccc(Cl)cc3)ccc2O[C@H]1CN(C)Cc1ccc(C(F)(F)F)cc1 | ? | ?
O=P(Cc1nnco1)(c1ccccc1)c1ccccc1 | -12% | ·

Structural class: those above with a tert-butyl group (three)
SMILES | VACV Venus inh | Vaccinia mCherry
CC(C)(C)C(=O)Nc1cc(S(=O)(=O)Nc2ccc(Cl)cc2)ccc1Cl | -14% | -21%
COc1ccccc1CNC(=O)[C@H](C)NC(=O)C1CCN(C(=O)[C@@H]2CCCN2C(=O)OC(C)(C)C)CC1 | ? | ?
CCC(=O)Nc1cc(C(C)(C)C)ccc1C(C)=O | -6% | -14%

Part of the list above in a different format:
Each structure is followed by: VACV Venus inh, Vaccinia mCherry
- CCn1c(C)nc2cc(C(=O)N/N=C/c3cccc(O)c3O)ccc21
→ ?, 13µM*
- CCCCN(CC)C(=O)CSc1nc2n[nH]c(C)c2c(=N)n1-c1cccc(C)c1
→ ?, ?
- CCOCCCNC(=O)Cn1nc(-c2ccc(OC)c(OC)c2)ccc1=O
→ -10%, -3%
- O=C(Nc1cccc(Cl)c1Cl)C1CCCO1 (stereo unspecified)
→ -15%, i
